Bioassay records from PubChem BioAssay.
LANA-H2A inh = blockers of LANA interaction with H2A/H2B – biochemical, FP readout, HTS, primary screen | 0.6% of 320,000 active | Protein LANA1 (Human herpesvirus 8 type P (isolate GK18)), Q9QR71 | cell-free LANA-H2A/H2B peptide, fluorescence polarization | inhibition, % (concentration not given with the values) | AID 2629, 2010; in the data active = inhibition mostly above about 10%, no sharp cut-off; inactive = mostly below about 6.7%;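 note: stock transfer was 7.5 nL into about 10 µL; 0% = median of vehicle wells and 100% = median of positive control wells; one replicate is shown; the record names a cut of 25% in any replicate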
Vif A3G = inhibitors of Vif binding to APOBEC3G peptide, primary screen, biochemical, TR-FRET, GST-Vif 1-94, biotin-A3G peptide, dose response retest (AID 1117319) | TR-FRET GST-Vif / biotin-A3G peptide binding; higher % means a stronger effect; test concentration not given here; strong numbers were not always called active | Virion infectivity factor (Human immunodeficiency virus type 1 group M subtype B (isolate … | inhibition, %; hits with a dose series show IC50 in µM | 0.57% of 260,000 active;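 active = above the screen mean plus three standard deviations and confirmed in dose response; inconclusive = results disagree or hit not tested in dose response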;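 note: Vif residues 1-94 fused to GST binding biotinylated APOBEC3G peptide 110-148; 0% = full assay without inhibitor and 100% = GST in place of GST-Vif; retest series ran down from 100 µM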
HNF4A DNA FP = change in binding of human HNF4A to DNA, primary screen, biochemical, fluorescence polarization, FITC-DNA; Hepatocyte nuclear factor 4-alpha (Homo sapiens), P41235; 1 h; activity change, % at 10 µM; 0.3% of 360,000 active; in the data active = activity change above about 30%, passing the limit was not always enough;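 note: controls were the assay level and a saturating level of protein; the project sought stronger binding though the title names inhibitors; some compounds called inactive have numbers as strong as hits; positive values seem to mean higher polarization but the record does not say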
Target sequence (P41235 whole entry, looked up): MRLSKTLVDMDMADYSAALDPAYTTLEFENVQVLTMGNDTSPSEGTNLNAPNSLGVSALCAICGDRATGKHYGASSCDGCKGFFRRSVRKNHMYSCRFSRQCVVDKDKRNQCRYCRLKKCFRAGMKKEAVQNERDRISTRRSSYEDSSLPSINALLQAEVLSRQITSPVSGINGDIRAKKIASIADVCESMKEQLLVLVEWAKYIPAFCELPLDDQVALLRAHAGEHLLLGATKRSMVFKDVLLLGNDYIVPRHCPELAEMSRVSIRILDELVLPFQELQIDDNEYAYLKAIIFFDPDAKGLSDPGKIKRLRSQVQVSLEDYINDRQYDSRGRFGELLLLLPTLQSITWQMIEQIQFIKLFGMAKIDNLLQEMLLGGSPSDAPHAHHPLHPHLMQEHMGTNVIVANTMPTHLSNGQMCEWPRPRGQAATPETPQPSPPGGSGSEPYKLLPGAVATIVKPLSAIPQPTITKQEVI
Bfl-1 A1 inh = caspase 3/7 activation in MEF A1-2A-BIM cells, primary screen, A1 inhibitor project, cell-based, luminescence, HTS; Caspase-Glo 3/7 luminescence, 3 h; percent of clofoctol response, vehicle zero; caspase activation, % (no concentration beside the values); 0.066% of 330,000 active; AID 2462, 2010;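 active = over half of replicate activation scores above 10%, or exactly half above 10 with the replicate mean above 10; inconclusive = replicate mean below 10 yet half the replicates above 10; inactive = over half of replicates below 10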;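 note: wells of about 30 µL received 50 nL stock; many hits fall short of the cut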
UCH37 DUB inh = inhibitors of human UCH37 deubiquitinase, primary screen, biochemical, Ub-AMC cleavage, fluorescence; Ubiquitin carboxyl-terminal hydrolase isozyme L5 (Homo sapiens), Q9Y5K5; purified proteasome/UCH37; inhibition, % (test concentration not listed); 0.33% of 330,000 active;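 active = mean of two replicates above 20%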;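 note: 0% = compound-free wells with enzyme and 100% = wells lacking proteasome; stock transfer was 100 nL into about 20 µL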
Target sequence (Q9Y5K5 whole entry, looked up): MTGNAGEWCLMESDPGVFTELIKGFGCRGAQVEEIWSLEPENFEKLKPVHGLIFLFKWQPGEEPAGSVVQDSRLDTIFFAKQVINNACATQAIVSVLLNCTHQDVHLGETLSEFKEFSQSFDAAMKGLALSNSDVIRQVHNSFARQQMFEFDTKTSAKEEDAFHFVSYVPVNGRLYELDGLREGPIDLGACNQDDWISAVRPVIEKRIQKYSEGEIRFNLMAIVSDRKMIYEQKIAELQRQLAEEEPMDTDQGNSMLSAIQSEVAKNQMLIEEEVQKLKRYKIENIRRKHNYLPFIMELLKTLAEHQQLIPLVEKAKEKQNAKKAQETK
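Material: Human UCH37 enzyme supplied as purified proteasome complex | Schedule: 30 min preincubation with enzyme, 25 min cleavage at room temperature | Detection: AMC fluorescence 355/460 nm | Measure: % inhibition of Ub-AMC cleavage fluorescence | Controls: Wells without proteasome as full block, compound-free enzyme plus substrate as uninhibited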
Ecoli growth = E. coli growth inhibition, primary screen, OD600. Escherichia coli growth, 23 h; active compounds read low. OD600 absorbance (concentration not given with the values). 0.21% of 330,000 active. AID 1053175, 2014;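 active = OD600 absorbance below the run mean of sample wells minus 3.6 SD, in any replicate, cut at about 0.56 in these data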;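 note: stock transfer was 300 nL into about 60 µL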
B2AR ag = beta2AR agonists driving receptor internalization, primary screen, cell-based, FAP fluorogen, flow cytometry | Am2.2-beta2AR cells; reference of the scale not given here | response, % (no concentration beside the values) | 0.43% of 340,000 active | AID 504454, 2011;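 active = response above a set limit, near 3 SD of response in nonfluorescent compounds, cut at about 42% in these data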;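 note: stock transfer was 100 nL into about 11 µL; a reference agonist was the positive control; negative values mostly stem from fluorescent compounds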
Numbers without * were called inactive; ? = inconclusive; . = no result given; & = joins results of further samples.

SMILES	LANA-H2A inh	Vif A3G	HNF4A DNA FP	Bfl-1 A1 inh	UCH37 DUB inh	Ecoli growth	B2AR ag
COc1ccc(NC(=O)c2nc[nH]c2C(=O)N2CCN(C(=O)OC(C)(C)C)CC2)cc1	0.5	-2%	1.8	-0.1	1.0	0.67	11
COc1cc(NC(=S)NC2CC2)c(OC)cc1Cl	3.4	10%	-0.2	0.3	0.1	0.68	-7
Cc1ccc(C(=O)NC2CC3CCCC(C2)N3Cc2ccccc2)cc1 (stereo unspecified)	-2.6	13%	0.8	0.2	4.9	0.65	-5
CC(C)(C)c1csc(NC(=O)c2ccc(Cl)s2)n1	-2.4	-8%&30%	0.3	0.6	1.2	0.74	4
O=C(COC(=O)CNC(=O)c1ccc(F)cc1)Nc1cccc(S(=O)(=O)N2CCCC2)c1	7.9	5%	2.7	2.5	4.0	0.71	1
Cn1nc(C(F)(F)F)c(C(=O)Nc2ccc(Cl)cc2)c1Cl	2.2	?	-0.6	1.0	1.4	0.7	-14
CC1CCCN(CCCCOc2cccc(Br)c2)C1 (stereo unspecified)	-2.8	-6%	-0.8	-0.1	2.9	0.67	12
Cc1cccc(C)c1NC(=S)N/N=C/c1ccc(OCCC(C)C)cc1	-6.3	5%	2.8	-0.5	.	.	0
CCCCc1cc(=O)oc2cc(OCC(=O)N(CC)CC)c(Cl)cc12	-3.4	134%	2.2	-0.7	-5.1	0.7	-14
O=C(NCc1ccccc1)NC12CC3CC(CC(C3)C1)C2	-1.7	13%	1.5	0.0	-1.7	0.67	-2
O=C(Nc1ccccc1)c1ccco1	-2.6	.	1.1	-3.4	1.9	0.67	12
Cc1ccc(S(=O)(=O)N2CCN(C(=O)/C=C/c3ccccc3)CC2)cc1C	.	0%	-0.5	.	3.5	0.69	-1
O=C(COC(=O)c1ccco1)Nc1ccccc1	2.0	-3%	13	0.6	-6.3	0.74	-1
c1ccc2c(CN3CCSCC3)cccc2c1	2.1	.	3.0	1.7	1.1	0.67	1
Cc1ccc(C(=O)NC(C)c2ccc3c(c2)OCO3)s1 (stereo unspecified)	5.2	-8%	3.6	0.3	4.0	0.64	-2
CC[C@@H](C)[C@H](N)C(=O)NC[C@H]1O[C@@H](n2cnc3c(N)ncnc32)[C@H](O)[C@@H]1O	.	5%	-0.8	.	0.3	0.67	-2
CCn1c(SCC(=O)N2CCCCC2)nc2c1c(=O)n(C)c(=O)n2C	7.1	.	-1.5	-1.0	1.1	0.69	-8
Cc1cc(N2CC(=O)N(CCc3ccccc3)C(=O)C2)n2ncnc2n1	-2.7	0%&15%	0.9	0.8	2.7	0.67	2
CC1CC(C)CN(CCC(=O)Nc2ccc3c(c2)CCC3)C1 (stereo unspecified)	4.1	13%	-2.6	-0.9	-0.3	0.67	0
Cc1cccc2nc(-c3cccnc3)c(NCCC(C)C)n12	-3.3	4%	-1.9	-1.4	-148	0.69	6

An excerpt from above, showing only Ecoli growth and B2AR ag:
Compound | Ecoli growth | B2AR ag
CC[C@@H](C)[C@H](N)C(=O)NC[C@H]1O[C@@H](n2cnc3c(N)ncnc32)[C@H](O)[C@@H]1O | 0.67 | -2
CCn1c(SCC(=O)N2CCCCC2)nc2c1c(=O)n(C)c(=O)n2C | 0.69 | -8
Cc1cc(N2CC(=O)N(CCc3ccccc3)C(=O)C2)n2ncnc2n1 | 0.67 | 2

(continued)
SMILES	LANA-H2A inh	Vif A3G	HNF4A DNA FP	Bfl-1 A1 inh	UCH37 DUB inh	Ecoli growth	B2AR ag
CCN1CCN(C(=S)NC(=O)c2cccs2)CC1	-2.5	-6%	-1.9	0.4	0.1	0.7	0
Cc1ccc(-c2[nH]nc3c2C(c2ccoc2)C(C#N)=C(N)O3)cc1C (stereo unspecified)	1.0	19%	-2.6	0.1	18	0.68	13
COc1cccc(CN(C(=O)COc2ccc(C)cc2)C2CCS(=O)(=O)C2)c1 (stereo unspecified)	0.6	.	6.6	0.2	1.9	0.7	-7
COc1ccc(/C=N/NC(=O)c2ccccc2)cc1OS(=O)(=O)c1ccccc1	3.2	5%	-2.7	-0.4	.	.	4
CN1CCN(NC(=O)C2CC2)CC1	0.8	.	-4.5	-0.4	1.8	0.69	6
Fc1ccc(CSc2ncnc3ccccc23)cc1	-3.1	-1%	3.5	1.0	1.2	0.71	5
O=C1NC2c3ccccc3C(=O)N2c2c1cnn2-c1ccccc1 (stereo unspecified)	-5.1	12%	2.3	-0.5	2.2	0.73	0
CC(=O)Nc1ccc(OCC(O)Cn2cnc3ccccc32)cc1 (stereo unspecified)	3.5	4%	2.3	-1.1	-0.2	0.73	-4
COC(=O)C1C/C(=N\NS(=O)(=O)c2ccc(C)cc2)c2sccc2C1 (stereo unspecified)	6.6	18%	-2.1	-0.4	.	.	1
COCC(=O)Nc1nnc(SCC(=O)N2C(C)CCCC2C)s1 (stereo unspecified)	-2.3	.	1.2	0.9	1.3	0.66	-2
Cc1ccccc1Nc1c([N+](=O)[O-])cncc1[N+](=O)[O-]	-1.9	.	2.3	1.2	5.3	0.65	2
CCN(CC)CCOc1c(Br)ccc2c1sc1nc3n(c(=O)c12)CCC3	0.0	6%	5.3	0.5	4.6	0.71	-16
c1csc(Cc2nc(-c3ccc(-n4cccc4)cc3)no2)c1	.	.	6.0	.	3.1	0.78	-4
O=C(c1cccc([N+](=O)[O-])c1)c1ccc2c(c1)C(=O)NC2=O	3.2	8%	6.3	0.9	-0.1	0.7	7
COc1ccc(N2CCN(C(=O)c3ccc(S(=O)(=O)N4CCCCCC4)cc3)CC2)cc1	.	1%	-1.6	.	0.4	0.69	0
COc1ccc(C(NC(=O)C2CCCCC2)c2c(O)ccc3ccccc23)cc1 (stereo unspecified)	-1.9	.	5.0	2.5	-1.1	0.76	5
O=c1oc2ccc3ccccc3c2cc1-c1nc2ccccc2o1	2.1	.	-3.7	0.3	-195	0.7	-3
O=S(=O)(c1ccc(F)cc1)c1nc(-c2ccco2)oc1Nc1ccccc1	3.1	6%	-1.0	-0.2	-2.9	0.7	-15
CCN(c1ccccc1)S(=O)(=O)c1ccc(C(=O)N(CCCN(C)C)c2nc3c(C)cccc3s2)cc1	-1.3	.	3.2	0.3	2.1	0.71	29
CC(=O)N1CCN(C(=O)COC(=O)COc2c(C)cc(C)cc2C)CC1	6.8	?	-1.2	-0.1	-0.1	0.68	0
CCOC(=O)c1csc(N)c1-c1ccc([N+](=O)[O-])cc1	2.5	68%	-1.7	0.2	6.1	0.64	-2
COCCNC(=S)NC1CC2CCCC(C1)N2Cc1ccco1 (stereo unspecified)	-1.1	-2%	-2.3	-0.1	0.7	0.61	0
O=C(NCCn1c(-c2ccncc2)nc2ccccc21)[C@H]1CCCN1c1nc(CN2CCCCC2)cs1	4.3	.	3.2	-0.3	2.8	0.79	-1
O=C(Cc1cn2ccsc2n1)NCc1ccccc1	5.2	-3%	1.6	0.6	2.6	0.64	-13
CC(CNC(=O)c1ccc(C#N)cc1)NC(=O)c1ccc(C#N)cc1 (stereo unspecified)	-1.2	.	0.3	1.6	0.2	0.7	0
Cc1ccc(-c2nn(Cc3ccccc3)cc2/C=C/C(=O)O)cc1	0.0	-2%	-0.9	-0.8	0.9	.	5
CCCCC1CCC(C(=O)N(C)CC(=O)Nc2cccc(OC)c2)CC1 (stereo unspecified)	6.7	9%	5.5	-0.5	4.4	0.68	6
O=c1c(-c2ccccc2)c(O)nc(SCCN2CCOCC2)n1-c1ccccc1	3.3	12%	2.7	0.1	2.9	0.67	-12
COC(=O)CCCn1nc(NC(=O)c2ccco2)cc1C	-1.5	-7%	3.6	0.1	1.9	0.66	6
Nc1nc(-c2ccccc2)c(N=Nc2ccc(Cl)cc2)s1	-4.6	.	2.1	0.5	4.7	0.65	10
COc1ccc(-n2nc3c(c2NC(=O)c2ccc(S(=O)(=O)N4CCOCC4)cc2)CS(=O)(=O)C3)cc1	14	1%	-1.0	1.0	6.1	0.7	2
Cc1[nH]c2ccccc2c1Cc1nnc(SCCC#N)o1	1.4	2%	2.7	0.9	5.5	0.68	-2
CCN1C[C@@H]2[C@@H]3C(=O)N(Cc4ccccc4)C(=O)[C@@H]3[C@](C)(C1=O)N2C(=O)c1ccc(Cl)c(Cl)c1	.	.	-1.8	.	2.0	.	-5
O=S(=O)(NCCc1ccccc1)c1ccc(F)cc1	4.3	-1%	1.9	0.4	4.0	0.72	10
CC(C)(C)C(=O)OCCn1c(=O)c2cc3c(=O)n(CCOC(=O)C(C)(C)C)c(=O)c3cc2c1=O	0.0	-1%	-1.7	1.9	2.8	0.69	3
Cc1ccc(C)c(S(=O)(=O)N2CCCCC2CCNC(=O)C(=O)NCc2ccncc2)c1 (stereo unspecified)	1.1	.	2.9	-0.1	.	.	-2
CCOc1ccc(C(=O)NC(C(=O)NCCc2ccc(S(N)(=O)=O)cc2)C(C)C)cc1 (stereo unspecified)	14*	.	2.1	0.8	1.3	0.66	0
CN(C)/C=C(/C(=O)c1ccccc1)n1cncn1	1.5	-5%	-2.6	0.5	2.9	.	22
O=C(NC1CCCC1)C(c1ccncc1)N(CC1CCCO1)C(=O)Cn1nnc(-c2cccs2)n1 (stereo unspecified)	-3.6	-10%&2%	-5.4	-0.4	1.8	0.7	-2
CC1=NN(c2ccc(Cl)c(C(=O)O)c2)C(=O)/C1=C\c1ccc(-c2ccc(C(=O)O)cc2)o1	.	2%	-14	.	-5.9	0.71	-3

Compounds shown so far that have an NH in an aromatic ring (3):
SMILES	LANA-H2A inh	Vif A3G	HNF4A DNA FP	Bfl-1 A1 inh	UCH37 DUB inh	Ecoli growth	B2AR ag
COc1ccc(NC(=O)c2nc[nH]c2C(=O)N2CCN(C(=O)OC(C)(C)C)CC2)cc1	0.5	-2%	1.8	-0.1	1.0	0.67	11
Cc1ccc(-c2[nH]nc3c2C(c2ccoc2)C(C#N)=C(N)O3)cc1C (stereo unspecified)	1.0	19%	-2.6	0.1	18	0.68	13
Cc1[nH]c2ccccc2c1Cc1nnc(SCCC#N)o1	1.4	2%	2.7	0.9	5.5	0.68	-2

(cont.)
SMILES	LANA-H2A inh	Vif A3G	HNF4A DNA FP	Bfl-1 A1 inh	UCH37 DUB inh	Ecoli growth	B2AR ag
FCCCOc1ccc(-c2nccc(-c3ccccn3)n2)cc1	4.6	5%	-0.1	0.2	4.2	0.65	2
Cn1c(/N=C/c2c(O)ccc3ccccc23)nc2ccccc21	9.6	26%	0.0	-1.1	.	.	1
COc1cccc(/C=N/NC(=O)NC2CCCCC2)c1O	-0.3	27%	-4.9	-1.0	.	.	-5
Cc1ccc(NC(=O)C2CC(=O)Nc3ncnn32)c(C)c1 (stereo unspecified)	-6.0	10%	-2.7	0.6	-2.2	0.71	-3
O=c1c2ccccc2nc(SCCN2CCCCC2)n1CCc1ccccc1	-0.9	.	0.8	-0.4	2.6	0.66	-11
COc1coc(C(O)CN)cc1=O (stereo unspecified)	0.6	?	0.0	1.1	-1.4	0.69	0
CCn1c(=O)cc(SCC(=O)Nc2ccc(Cl)cc2)c2ccccc21	2.0	-31%	-3.7	-0.6	-0.6	0.7	-8
